Sa RN4220 lethal = kills Staphylococcus aureus RN4220; inhibition, % (test concentration not listed); S. aureus RN4220 growth, OD600, 16 h; hit rate 0.33% among 330,000;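 active = z-score of -3 or lower and OD600 up to 0.18 on both plates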;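 note: plate controls were untreated cells for no effect and reference antibiotic for full effect; stock transfer was 100 nL into about 80 µL; one replicate is shown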
PrP UTR inh = inhibition of PrP 5' UTR reporter expression; cell-based PrP 5' UTR mRNA reporter, plate reader; inhibition, % (no concentration beside the values); hit rate 0.35% among 340,000;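 active = every replicate at 50% or more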;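 note: 0 = median of the neutral control wells; tested in H4 reporter cells; numbers are from one replicate; inactives centre near -14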
Autofluor counter = compound fluorescence in toxin protease inhibitor counterscreen. compound autofluorescence counterscreen, microsphere flow cytometry; hits give high values. fluorescence intensity (test concentration not listed). hit rate 3.1% among 360,000. AID 624483;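 active = at least 3 SD above the mean of all compounds, about 16000 in these data; inconclusive = too few beads counted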;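 note: 100 nL of 1 mM stock went into each well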
BJeLR viability = BJeLR cell viability loss. BJeLR (HRASV12) viability, CellTiter-Glo ATP luminescence, 48 h; reference of the scale not given here. hit rate 0.17% among 300,000. inhibition, % (no concentration beside the values). AID 1554;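 active = replicate mean above 50%; inconclusive = above 50% but judged a plate artefact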;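 note: 50 nL library stock added to about 25 µL; numbers are from one replicate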
Mtb hypoxia inh = inhibitors of hypoxia-regulated fluorescent reporter in Mycobacterium tuberculosis. fluorescence inhibition, % (no concentration beside the values). M. tuberculosis hypoxia-regulated fluorescent reporter, fluorescence. hit rate 0.1% among 300,000;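 active = 35 to 45% if threefold the growth effect, above 45% if 1.5-fold the growth effect; inactive = the rest, general growth blockers included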;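 note: wells of about 50 µL received 100 nL stock; 0% = vehicle wells and 100% = reference inhibitor wells; whole bacteria with a GFP reporter of the hypoxia response; strong numbers were not always called active; many hits fall short of the cut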
Sa ugtP lethal = kills S. aureus RN4220 lacking UgtP; AID 1259309; growth inhibition, % (test concentration not listed); hit rate 0.54% among 330,000; S. aureus RN4220 ugtP deletion, OD600 growth, 16 h; some inactives read as strong as hits;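 active = z-score under -3 and OD600 up to 0.15 on both plates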;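 note: plate controls were untreated wells for no effect and antibiotic for full effect; wells of about 80 µL received 100 nL stock; the first replicate is given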
Mtb hypoxia inh growth = also measured in Mtb hypoxia inh; calls as there; growth inhibition, %; measured here: M. tuberculosis growth (absorbance);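 0% = vehicle and 100% = reference antibiotic; read after six days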
The depositor's hits bear a star; ? = inconclusive; nt = no result given.

entry	SMILES	Sa RN4220 lethal	PrP UTR inh	Sa ugtP lethal	BJeLR viability
1	CCOC(=O)C(=O)c1cn(C2OCC(OC(C)=O)C(OC(C)=O)C2OC(C)=O)c2ccccc12 (stereo not drawn)	nt	-9	nt	-12
2	CCOc1ccc(S(=O)(=O)N2CCC(C(=O)NCc3cccnc3)CC2)cc1Cl	-1.2	1	9	3
3	COCCOC(=O)C1=C(C)N=c2sc(=Cc3cccs3)c(=O)n2C1c1cccs1 (stereo not drawn)	-16	nt	-5	nt
4	C/C(=N\NC(=O)c1ccoc1C)c1ccc(Cl)s1	nt	-55	nt	-9
5	COc1cccc(NC(C)=[N+](C)CCNS(=O)(=O)c2ccc(Cl)cc2)c1	-0.1	-23	9	5
6	COCCNC(=O)CN1CCN(Cc2cccc(Cl)c2)C1=O	6.5	-16	-2	-4
7	O=C(CCNC(=O)c1ccco1)Nc1ccccc1OC(F)F	3.6	-13	2	0
8	Cc1cccc(NC(=O)CSc2nc3ccccc3nc2N2CCCC2)c1	-8.2	-15	-9	16
9	COc1ccccc1N1CCN(C(=O)C(=O)c2c(C)[nH]c3ccccc23)CC1	12	-25	9	2
10	CCOc1cc(C=N/N=C2/NC(=O)C(CC(=O)O)S2)ccc1OS(=O)(=O)c1ccc(C)cc1 (stereo not drawn)	4.8	nt	-1	nt
11	CCOC(=O)CSc1nnc(C)c(C)n1	7.4	-28	3	16
12	Cc1ccc(NS(=O)(=O)c2cc(NC(=O)c3ccc4c(c3)NC(=O)CS4)ccc2C)c(C)c1	-8.0	-23	-11	-2
13	CC(C)C(C(=O)O)N1C(=O)/C(=C/c2cccn2C)SC1=S (stereo not drawn)	22	-10	-16	nt
14	COc1ccc(CNC(=O)COC(=O)CCS(=O)(=O)c2ccc(C)cc2)cc1OC	-0.8	-11	2	-2
15	CCOc1c(Br)cc(C(=O)OCC(=O)N2CCc3ccccc3C2)cc1OC	4.4	-38	2	nt

entry	Autofluor counter	Mtb hypoxia inh	Mtb hypoxia inh growth
1	2112	nt	nt
2	3622	0	10
3	nt	4	5
4	6837	nt	nt
5	4135	9	-2
6	5647	12	8
7	3696	4	3
8	4172	0	8
9	nt	-8	-10
10	nt	7	2
11	3953	21	5
12	2638	1	-2
13	9752	9	2
14	?	-4	3
15	8168	3	2

Reprinted at random: three entries already listed
entry	SMILES	Sa RN4220 lethal	PrP UTR inh	Sa ugtP lethal	BJeLR viability
15	CCOc1c(Br)cc(C(=O)OCC(=O)N2CCc3ccccc3C2)cc1OC	4.4	-38	2	nt
6	COCCNC(=O)CN1CCN(Cc2cccc(Cl)c2)C1=O	6.5	-16	-2	-4
13	CC(C)C(C(=O)O)N1C(=O)/C(=C/c2cccn2C)SC1=S (stereo not drawn)	22	-10	-16	nt

entry	Autofluor counter	Mtb hypoxia inh	Mtb hypoxia inh growth
15	8168	3	2
6	5647	12	8
13	9752	9	2

The list continues:
entry	SMILES	Sa RN4220 lethal	PrP UTR inh	Sa ugtP lethal	BJeLR viability
16	CCOC(=O)C1=C(c2ccccc2)NC(=S)NC1c1cccc([N+](=O)[O-])c1 (stereo not drawn)	2.9	-33	-3	-2
17	CC(=O)Nc1ccc(NC(=O)C2CC(=O)N(Cc3ccccc3)C2)cc1 (stereo not drawn)	15	-24	6	13
18	CCN(CC(=O)NCc1ccc(Cl)cc1)C(=O)/C=C/c1ccc(Cl)c([N+](=O)[O-])c1	1.0	-13	4	-1
19	Nc1ccc(N2CCN(c3ccccc3)CC2)c(F)c1	-0.5	-23	-2	4
20	Cc1cc(Br)ccc1NC(=O)CCN1C(=O)c2ccncc2C1=O	1.7	-10	1	1
21	N/C(=N\OC(=O)CCN1C(=O)c2ccccc2C1=O)c1ccccn1	4.5	-25	12	12
22	COc1ccc(CCNC(=O)CC(C)S(=O)(=O)c2ccc3c(c2)NC(=O)CO3)cc1OC (stereo not drawn)	2.6	-23	5	-3
23	CCC(CC)NC(=O)c1cccc(Oc2ccccc2)c1	1.6	-26	-3	6
24	Cc1nnc(SCC(=O)N2CCOCC2)n1C	7.2	-29	6	5
25	COc1ccc(Cc2nc(C(=O)Nc3ccc(OC)cc3)cs2)cc1	-3.5	-37	23	2
26	COC(C[C@@H](O)C[C@@H](O)[C@@H](C)OCc1ccccc1)OC	nt	-4	nt	-11
27	C#CC[N+](C)(C)CCCCCCCCCCCC	99*	-10	99*	12
28	CCc1cccc2c(C(=O)COC(=O)/C=C/c3ccccc3OC)c[nH]c12	-8.0	-2	-9	-10
29	COc1cccc(OCC(=O)NNC(=O)c2ccc3ccccc3c2O)c1	6.3	3	6	-13
30	CC(Sc1nc(N)cc(=O)[nH]1)C(=O)NC1CCCCC1 (stereo not drawn)	0.2	6	-3	nt

entry	Autofluor counter	Mtb hypoxia inh	Mtb hypoxia inh growth
16	10668	1	4
17	3194	3	8
18	5372	1	-2
19	3112	7	-2
20	4002	nt	nt
21	4374	0	6
22	5216	0	0
23	4307	12	0
24	2957	6	1
25	3790	16	10
26	4081	nt	nt
27	2471	15	17
28	6425	-3	7
29	4056	2	3
30	4693	nt	nt

entry	SMILES	Sa RN4220 lethal	PrP UTR inh	Sa ugtP lethal	BJeLR viability
31	C=C1N(c2ccc(Cl)cc2)C(=O)OC1(C)C	6.6	-20	10	-18
32	CCOC(=O)c1c(NC(=O)C(C)N2CCN(S(=O)(=O)c3cccs3)CC2)sc2c1CCC(C)C2 (stereo not drawn)	nt	-8	nt	-8
33	CN1CCC(NC(=S)Nc2cccc([N+](=O)[O-])c2)CC1	0.7	-24	1	1
34	COc1ccc(NC(=O)C2CCCN(S(=O)(=O)c3c(C)n[nH]c3C)C2)cc1 (stereo not drawn)	-2.0	-2	2	3
35	CN(C(=O)CN1C(=O)c2cc(Cl)c(Cl)cc2C1=O)C1CCS(=O)(=O)C1 (stereo not drawn)	2.3	-9	4	2
36	O=C(Nc1cccnc1)c1cc(Cl)ccc1Cl	-4.3	-6	10	-9
37	O=C(O)c1ccc2nc3c(nc2c1)-c1ccccc1C3=O	8.3	-20	5	5
38	Nc1c(C(=O)c2ccccc2O)cnn1-c1ccc(S(=O)(=O)N2CCOCC2)cc1[N+](=O)[O-]	5.9	nt	-10	-1
39	O=C(NC1CCCCC1)c1ccc(-c2ccccc2[N+](=O)[O-])o1	2.1	-79	-13	0
40	COc1cc2c(cc1OC)CN(CC(=O)Nc1ccc3c(c1)OCO3)CC2	0.2	-24	2	-4
41	CN(c1ccc(C(=O)NCc2ccc3c(c2)OCO3)cc1)S(=O)(=O)c1ccccc1	-2.8	-25	-6	1
42	Cc1ccc(CNC(=O)CN2C(=O)NC(C)(c3ccc(Cl)cc3)C2=O)cc1 (stereo not drawn)	-2.4	-9	16	-21
43	Cc1cccc(NC(=O)c2ccccc2Br)n1	4.5	-18	11	9
44	O=C(CCCOc1ccc(Cl)cc1Cl)N/N=C/c1cccc([N+](=O)[O-])c1	nt	-6	nt	-1
45	Cc1ccc2c(C(=O)CN3CCOCC3)c(C)[nH]c2c1	0.5	22	1	-6

entry	Autofluor counter	Mtb hypoxia inh	Mtb hypoxia inh growth
31	9245	14	8
32	2097	nt	nt
33	4539	-3	-9
34	3377	nt	nt
35	5471	-16	-8
36	2962	5	-3
37	2568	-5	8
38	nt	11	-3
39	4432	-1	17
40	2588	nt	nt
41	4881	4	7
42	3843	2	10
43	6035	5	6
44	2424	nt	nt
45	2310	nt	nt

Full records as entered above.
`CC(=O)Nc1ccc(NC(=O)C2CC(=O)N(Cc3ccccc3)C2)cc1` (stereo not drawn) is entered as Sa RN4220 lethal = 15; PrP UTR inh = -24; Sa ugtP lethal = 6; BJeLR viability = 13; Autofluor counter = 3194; Mtb hypoxia inh = 3; Mtb hypoxia inh growth = 8
`CN1CCC(NC(=S)Nc2cccc([N+](=O)[O-])c2)CC1` is entered as Sa RN4220 lethal = 0.7; PrP UTR inh = -24; Sa ugtP lethal = 1; BJeLR viability = 1; Autofluor counter = 4539; Mtb hypoxia inh = -3; Mtb hypoxia inh growth = -9

Later entries:
entry	SMILES	Sa RN4220 lethal	PrP UTR inh	Sa ugtP lethal	BJeLR viability
46	OCCN(Cc1ccccc1)CC1CC2C=CC1C2 (stereo not drawn)	5.5	-25	10	8
47	O=S(=O)(Cc1ccccc1Cl)Nc1ccccn1	-0.6	-9	2	2
48	Cn1c(CNS(=O)(=O)c2cccc(Cl)c2)cc(=O)n(C)c1=O	-4.2	-3	-7	8
49	Cc1ccc2nc3c(cc2c1)CN(Cc1ccco1)C(=NCC1CCCO1)S3 (stereo not drawn)	0.6	-11	9	0
50	CCC(C)(C)C1CCC(=NNc2nc3ccccc3[nH]2)CC1 (stereo not drawn)	-0.4	-27	-4	-5
51	COc1ccc(CNCCNC(=O)c2nonc2N)cc1OC	-1.6	-11	1	5
52	C=CCNC(=O)/C(C#N)=C/c1c(N2CCCCCC2)nc2ccccn2c1=O	3.5	8	1	2
53	Nc1ccc(C2(c3ccc(N)cc3)OC(=O)c3ccccc32)cc1	7.1	-46	3	-2
54	CC(=O)c1ccc(NC(=O)CN2CCCCCC2)cc1	2.0	-8	-3	-6
55	Cc1csc2nc(COC(=O)CNC(=O)c3ccc(Cl)cc3)cc(=O)n12	1.6	-27	8	nt
56	O=C(/C=C/c1ccccc1)Nn1cnc2ccccc2c1=O	2.4	1	-2	-3
57	CC(=O)Nc1cccc(C(=O)N/N=C/c2ccc(F)cc2)c1	nt	-78	nt	1
58	O=C(Nc1ccc(N2CCN(c3ncccc3C(F)(F)F)CC2)nc1)c1cccs1	-0.9	-12	-6	0
59	CC(=NNC(N)=S)c1ccc(Cl)s1	6.0	nt	-2	nt
60	Cc1nc(C(=O)NCc2ccccc2)sc1C1(C)CC(c2cccc([N+](=O)[O-])c2)=NO1 (stereo not drawn)	-4.8	-9	-4	-6

entry	Autofluor counter	Mtb hypoxia inh	Mtb hypoxia inh growth
46	7622	8	1
47	5712	0	7
48	6207	-9	1
49	3923	nt	nt
50	2470	-5	7
51	?	-3	-6
52	3889	6	11
53	3177	10	4
54	5894	-10	6
55	6201	0	2
56	2280	-3	-2
57	2169	nt	nt
58	6128	-10	5
59	nt	nt	nt
60	3702	-1	0

entry	SMILES	Sa RN4220 lethal	PrP UTR inh	Sa ugtP lethal	BJeLR viability
61	O=C(Cc1ccccc1)NCCS(=O)c1ccc(Cl)cc1 (stereo not drawn)	-1.1	-22	2	11
62	CCCCCn1c(SCC(=O)OCC)nc2cc(C(=O)N3CCC(C(N)=O)CC3)ccc2c1=O	1.8	5	-2	-1
63	Nc1cc(Oc2ccc(Cl)cc2Cl)nc(N)n1	3.7	0	3	21
64	Cc1ccc(CNC(=O)CN2C(=O)NC3(CCCC3)C2=O)cc1	1.9	-22	-2	nt
65	Cc1nc(NCc2ccco2)c2cn[nH]c2n1	3.1	-17	6	nt
66	Cc1cccc(C)c1NC(=O)CC(C)c1ccccc1 (stereo not drawn)	1.7	-21	5	-20
67	O=c1c2ccccc2c(-c2n[nH]c(=S)o2)nn1Cc1ccccc1	30	20	5	4
68	Cc1ccc(S(=O)(=O)NC(=O)c2cc(C)n(-c3cc(S(=O)(=O)N4CCOCC4)ccc3N3CCCC3)c2C)cc1	17	-22	-10	-10
69	O=C(CCc1ccccc1)Nc1ccc(NC(=O)c2ccco2)nc1	-6.9	-46	-2	10
70	O=C(NCCC1=CCCCC1)NC1CCCCC1	5.7	-80	6	14
71	COc1ccccc1CCNC(=O)C(=O)NCCC1CCCCN1S(=O)(=O)c1ccccc1 (stereo not drawn)	-0.8	-10	3	8
72	CCCCN1C(=O)NC(=O)C2(Cc3ccccc3N3CCOCC32)C1=O (stereo not drawn)	4.9	8	4	0
73	Cc1cc(C)cc(C(=O)NCC(=O)OCC(=O)N2CCN(S(=O)(=O)c3ccc4ccccc4c3)CC2)c1	-2.6	-2	-5	-5
74	O=[N+]([O-])c1cccc2ccc(N3CCOCC3)nc12	1.1	-7	4	-17
75	Cc1cc(C(=O)CS(=O)(=O)c2ccccc2)cc(C)c1OC(=O)N(C)C	4.3	-40	0	7
76	CCN(CC)S(=O)(=O)c1ccc2c(c1)nc(SC(C)C(N)=O)n2-c1ccc(OC)cc1 (stereo not drawn)	5.2	7	-2	-5

entry	Autofluor counter	Mtb hypoxia inh	Mtb hypoxia inh growth
61	4483	nt	nt
62	21996*	-16	-8
63	nt	4	-6
64	3215	6	8
65	3790	6	2
66	5429	2	-3
67	4608	1	4
68	9633	15	10
69	nt	nt	nt
70	3267	19	22
71	nt	9	11
72	8997	3	9
73	2173	-10	-3
74	nt	6	-2
75	4280	5	9
76	2189	nt	nt

Compound activity from PubChem BioAssay.
